Vaccinia inh – Vaccinia orthopox stage-specific inhibition; 0.01% of 89,000 active; activity change (mCherry), % (no concentration beside the values); AID 1053133; Vaccinia-infected cells, mCherry/Venus stage reporter fluorescence; stronger effect = lower value; some inactives read as strong as hits;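 active = mCherry past -33% and 40 or more points under the early reporter, replicates agreeing; inconclusive = past -33% without that gap or agreement; tested in A549 cells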;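 also: scaled between vehicle wells and reference inhibitor wells; 23 nL library stock went into each well; one replicate is shown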
Vaccinia inh Venus – second read-out of Vaccinia inh, no call of its own (marks repeat the call); activity change (Venus), %; measured here: Venus reporter, other viral stage;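 negative = less Venus signal; first of two replicates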
Active calls of the source: *; ? = inconclusive; · = no result given; & = joins results of further samples.

SMILES	Vaccinia inh	Vaccinia inh Venus
O=C(Nc1cccc(F)c1)N1C[C@@H]2[C@H](c3ccccc31)[C@H](CO)N2C(=O)C1CCOCC1	1.3	5.6
COc1cccc(-c2ccc3c(c2)[C@H]2[C@H](CCN2C(=O)c2ccccn2)[C@H](CO)N3)c1	-26.5	-25.1
C[C@@H]1CN([C@H](C)CO)C(=O)Cc2cc(NC(=O)c3ccncc3)ccc2O[C@@H]1CN(C)S(=O)(=O)c1ccc(Cl)cc1	2.9	6.6
C[C@H](CO)N1C[C@H](C)[C@H](CN(C)C(=O)Nc2ccccc2)Oc2c(NS(=O)(=O)c3ccc(F)cc3)cccc2C1=O	4.6	-0.4
C[C@H](CO)N1C[C@H](C)[C@@H](CN(C)C(=O)CC2CC2)Oc2cc(-c3ccccc3)ccc2S1(=O)=O	-16.1	-12.8
O=C(CCN1CCCCC1)N[C@@H]1CC[C@@H](CCNS(=O)(=O)c2ccc(Cl)cc2)O[C@@H]1CO	11.1	4.4
Cc1noc(C)c1S(=O)(=O)N(C)C[C@@H]1Oc2c(NC(=O)c3nc4ccccc4s3)cccc2C(=O)N([C@H](C)CO)C[C@@H]1C	4.8	3.7
COc1ccc(-c2cnc3c(c2)C(=O)N([C@@H](C)CO)C[C@H](C)[C@H](CN(C)C(=O)Cc2ccncc2)O3)cc1	16.1	18.4
CN(C)CC#Cc1ccc([C@@H]2[C@H]3CN(C(=O)Nc4ccccc4F)CCCCN3[C@H]2CO)cc1	-7.1	-0.9
CCC(=O)N(C)C[C@@H]1Oc2ncc(-c3ccc(C#N)cc3)cc2C(=O)N([C@@H](C)CO)C[C@@H]1C	2.7	0.6
CC(C)NC(=O)N1CCCCN2[C@@H](CO)[C@H](c3ccc(C#Cc4ccccc4)cc3)[C@@H]2C1	?	·
COc1ccc(S(=O)(=O)N(C)C[C@H]2Oc3ccc(NS(C)(=O)=O)cc3C(=O)N([C@@H](C)CO)C[C@H]2C)cc1	12.0	14.7
O=C(c1ccc2c(c1)OCO2)N1CC2(C1)[C@H](c1ccccc1)[C@H](CO)N2C(=O)C1CC1	-8.3	18.4
O=C(C1CCCC1)N1CC[C@@H]2[C@@H](CO)Nc3ccc(-c4cccc(F)c4)cc3[C@@H]21	-33.3	-30.7
CN(C)CC(=O)N1[C@H](CO)[C@H](c2ccc(C#CC3CCCC3)cc2)[C@@H]1C#N	?	·
CCNC(=O)C[C@H]1CC[C@@H]2[C@H](COc3ccc(NC(=O)c4ccccc4)cc3C(=O)N2C)O1	3.8	3.5
C[C@@H]1CCCCO[C@H](CN(C)C(=O)Nc2cccc3ccccc23)[C@@H](C)CN([C@H](C)CO)C(=O)c2cc(NC(=O)Cc3ccccc3)ccc2O1	6.0	1.7
Cc1noc(C)c1NC(=O)N(C)C[C@H]1Oc2ccc(NC(=O)c3ccncc3)cc2C(=O)N([C@H](C)CO)C[C@H]1C	9.0	1.7
CC(C)C#Cc1ccc([C@H]2[C@@H](CO)N3C(=O)CN(C(=O)c4ccc5c(c4)OCO5)C[C@@H]23)cc1	-11.2	-3.7
C[C@@H]1CN([C@H](C)CO)C(=O)Cc2cc(NS(=O)(=O)c3ccc(F)cc3)ccc2O[C@H]1CN(C)Cc1ccccc1	-1.5	-4.8

Pulled by structure from the entries so far, seven records:
SMILES	Vaccinia inh	Vaccinia inh Venus
C[C@@H]1CN([C@H](C)CO)C(=O)Cc2cc(NC(=O)c3ccncc3)ccc2O[C@@H]1CN(C)S(=O)(=O)c1ccc(Cl)cc1	2.9	6.6
CCNC(=O)C[C@H]1CC[C@@H]2[C@H](COc3ccc(NC(=O)c4ccccc4)cc3C(=O)N2C)O1	3.8	3.5
C[C@H](CO)N1C[C@H](C)[C@H](CN(C)C(=O)Nc2ccccc2)Oc2c(NS(=O)(=O)c3ccc(F)cc3)cccc2C1=O	4.6	-0.4
Cc1noc(C)c1S(=O)(=O)N(C)C[C@@H]1Oc2c(NC(=O)c3nc4ccccc4s3)cccc2C(=O)N([C@H](C)CO)C[C@@H]1C	4.8	3.7
O=C(C1CCCC1)N1CC[C@@H]2[C@@H](CO)Nc3ccc(-c4cccc(F)c4)cc3[C@@H]21	-33.3	-30.7
CCC(=O)N(C)C[C@@H]1Oc2ncc(-c3ccc(C#N)cc3)cc2C(=O)N([C@@H](C)CO)C[C@@H]1C	2.7	0.6
O=C(CCN1CCCCC1)N[C@@H]1CC[C@@H](CCNS(=O)(=O)c2ccc(Cl)cc2)O[C@@H]1CO	11.1	4.4

More structures follow:
SMILES	Vaccinia inh	Vaccinia inh Venus
C[C@H](CO)N1C[C@H](C)[C@H](CN(C)C(=O)Nc2cccc3ccccc23)OCCCC[C@H](C)Oc2ccc(NC(=O)CCCN(C)C)cc2C1=O	21.9	14.2
COc1ccc2c3c([nH]c2c1)[C@H](CO)N(C(=O)NC1CCCC1)CC31CCN(C(=O)Nc2cccc(F)c2)CC1	-29.9	-34.1
Cc1noc(C)c1S(=O)(=O)Nc1ccc2c(c1)CC(=O)N([C@H](C)CO)C[C@@H](C)[C@H](CN(C)Cc1ccc(Cl)c(Cl)c1)O2	-28.4	-19.2
O=C(Nc1ccccc1F)N[C@H]1CC[C@@H](CCNC(=O)C2CCCC2)O[C@@H]1CO	-8.4	2.2
O=S(=O)(N[C@@H]1CC[C@@H](CCn2cc(-c3ccccn3)nn2)O[C@@H]1CO)c1cccc(F)c1	6.5	5.5
C[C@H]1CN([C@@H](C)CO)C(=O)c2cccc(NS(C)(=O)=O)c2O[C@@H]1CN(C)Cc1ccc(C(=O)O)cc1	1.6	5.5
COc1cccc(S(=O)(=O)Nc2ccc3c(c2)[C@@H]2C[C@@H](CC(=O)NCc4ccc(Cl)cc4)O[C@H](CO)[C@@H]2O3)c1	-34.8	-27.2
N#C[C@@H]1[C@H](c2ccc(-c3cccnc3)cc2)[C@H](CO)N1C(=O)C1CCC1	?	·
CCC(=O)Nc1ccc2c(c1)C(=O)N(C)[C@H]1CC[C@H](CC(=O)Nc3cccc(F)c3)O[C@@H]1CO2	0.2	-2.2
CO[C@H](CN(C)C(=O)C1CCOCC1)[C@@H](C)CN(C(=O)Nc1ccc(C(F)(F)F)cc1)[C@@H](C)CO	-5.9	-9.8
C[C@H](CO)N1C[C@H](C)[C@@H](CN(C)CC2CCCC2)Oc2ncc(C#CCc3ccccc3)cc2C1=O	?	·
C[C@H](CO)N1C[C@H](C)[C@@H](CN(C)S(=O)(=O)c2ccccc2)OCCCC[C@H](C)Oc2ccc(NS(C)(=O)=O)cc2C1=O	26.0	14.2
C[C@H](CO)N1C[C@H](C)[C@H](CN(C)CC2CC2)Oc2c(NC(=O)c3ccncc3)cccc2C1=O	7.3	14.1
COc1ccc(-c2ccc3c(c2)O[C@H](CN(C)CC2CCOCC2)[C@@H](C)CN([C@H](C)CO)S3(=O)=O)cc1	-11.1	-16.8
C[C@H](CO)N1C[C@H](C)[C@@H](CN(C)C(=O)Cc2ccccc2)OCCCC[C@H](C)Oc2ccc(NS(=O)(=O)c3ccc(Cl)cc3)cc2C1=O	?	·
C[C@@H](O)C#Cc1ccc2c(c1)O[C@H](CN(C)Cc1ccncc1)[C@@H](C)CN([C@@H](C)CO)S2(=O)=O	-20.7	-16.7
COc1ccc2c3c(n(C)c2c1)[C@@H](CO)N(S(C)(=O)=O)CC31CCN(Cc2cncnc2)CC1	-21.8	-14.6
COc1ccc(-c2ccc([C@H]3[C@H]4CN(C(=O)Cc5ccncc5)CCCCN4[C@H]3CO)cc2)cc1	?	·
Cc1ccc(S(=O)(=O)N[C@H]2CC[C@@H](CC(=O)NCCc3ccncc3)O[C@H]2CO)cc1	28.2	17.6
COc1ccc(NC(=O)N(C)C[C@H]2Oc3ccc(NS(=O)(=O)c4cn(C)cn4)cc3C(=O)N([C@H](C)CO)C[C@H]2C)cc1	-3.0	-7.9
CN1C(=O)c2cc(NC(=O)C3CCC3)ccc2OC[C@H]2O[C@@H](CC(=O)NCC3CCCCC3)CC[C@H]21	-12.9	-20.6
O=C(Cc1ccccn1)N[C@@H]1CC[C@@H](CCNS(=O)(=O)c2cccc(F)c2)O[C@H]1CO	3.8	7.0
Cc1ccc(S(=O)(=O)Nc2cccc3c2O[C@H](CN(C)C(=O)Nc2ccccc2)[C@@H](C)CN([C@H](C)CO)C3=O)cc1	-9.6	-9.2
O=C(N[C@@H]1CC[C@@H](CCn2cc(C3(O)CCCC3)nn2)O[C@@H]1CO)c1ccccc1F	15.4	14.7
C[C@@H]1CN([C@@H](C)CO)C(=O)c2cc(/C=C/c3ccccc3)cnc2O[C@H]1CN(C)C(=O)c1ccc(F)cc1	?	·
CC(C)NC(=O)Nc1ccc2c(c1)C(=O)N([C@@H](C)CO)C[C@@H](C)[C@H](CN(C)C(=O)Nc1ccc(F)cc1)OCCCC[C@H](C)O2	-1.3	0.8
COc1ccccc1C#Cc1ccc([C@H]2[C@H](CO)N3CCCCN(C(=O)C4CC4)C[C@@H]23)cc1	?	·
C[C@H](CO)N1C[C@H](C)[C@@H](CN(C)C(=O)Nc2ccc3c(c2)OCO3)Oc2c(NC(=O)Nc3ccc(C(F)(F)F)cc3)cccc2C1=O	?	·
C[C@@H]1CN([C@H](C)CO)C(=O)c2cccc(NS(=O)(=O)c3cccs3)c2O[C@@H]1CN(C)Cc1ccc(-c2ccccc2)cc1	7.7	10.1
CO[C@@H]1CN(C)C(=O)c2cc(NS(=O)(=O)Cc3ccccc3)ccc2OC[C@@H](C)N(Cc2cccnc2)C[C@H]1C	-10.4	-9.1
COc1ccc2c3c([nH]c2c1)[C@@H](CO)N(C(=O)C1CC1)CC31CN(Cc2nccs2)C1	-2.8	-3.8
C[C@@H]1CCCCO[C@@H](CN(C)Cc2ccc(Cl)c(Cl)c2)[C@@H](C)CN([C@@H](C)CO)C(=O)c2cc(NS(=O)(=O)c3ccc(Cl)cc3)ccc2O1	?	·
C[C@@H]1CCCCO[C@H](CN(C)C(=O)Nc2ccccc2)[C@H](C)CN([C@@H](C)CO)C(=O)c2cc(NC(=O)Nc3ccc(C(F)(F)F)cc3)ccc2O1	-29.3	-13.0
C[C@H](CO)N1C[C@H](C)[C@H](CN(C)S(C)(=O)=O)Oc2c(NC(=O)c3cnccn3)cccc2C1=O	14.9	20.2
C[C@@H]1CN([C@@H](C)CO)C(=O)Cc2cc(NC(=O)NC3CCCCC3)ccc2O[C@H]1CN(C)CC1CC1	0.9	1.1
Cc1noc(C)c1NC(=O)N(C)C[C@@H]1OCCCC[C@@H](C)Oc2ccc(NC(=O)c3ccncc3)cc2C(=O)N([C@@H](C)CO)C[C@H]1C	25.3	6.7
COc1ccc(NC(=O)N[C@H]2CC[C@H](CCNC(=O)CCN3CCCCC3)O[C@H]2CO)cc1	11.5	12.4
COc1ccc2c3c(n(C)c2c1)[C@H](CO)N(C)CC31CN(C(=O)c2ccc3c(c2)OCO3)C1	2.8	-2.5
C[C@@H]1CN([C@@H](C)CO)C(=O)c2cc(NS(=O)(=O)c3ccc(Cl)cc3)ccc2O[C@H]1CN(C)Cc1ccc(C(=O)O)cc1	19.3	11.4
O=C(NCCc1ccncc1)[C@H]1[C@H](CO)[C@H]2Cn3c(ccc(-c4ccccc4)c3=O)[C@@H]1N2	3.5	3.3
CC(C)NC(=O)N(C)C[C@H]1Oc2c(NC(=O)Nc3ccc(F)cc3)cccc2C(=O)N([C@H](C)CO)C[C@H]1C	7.3	1.3
C[C@H]1CN([C@@H](C)CO)C(=O)c2cc(NS(=O)(=O)c3ccc(F)cc3)ccc2O[C@H]1CN(C)Cc1ccc(C(=O)Nc2ccccc2N)cc1	19.8	4.9
CC(C)NC(=O)N(C)C[C@H]1Oc2cc(-c3ccccc3)ccc2S(=O)(=O)N([C@@H](C)CO)C[C@H]1C	-4.2	-4.4
O=C(NCC[C@@H]1CC[C@@H](NS(=O)(=O)c2ccc(Cl)cc2)[C@H](CO)O1)c1ccccc1F	6.0	9.1
C[C@@H]1CN([C@H](C)CO)C(=O)c2cccc(NS(=O)(=O)c3ccc(Cl)cc3)c2O[C@H]1CN(C)C	23.3	7.0
C[C@@H]1CCCCO[C@@H](CN(C)C(=O)Cc2ccccc2)[C@@H](C)CN([C@H](C)CO)C(=O)c2cc(N(C)C)ccc2O1	1.7&4.8	3.7&-1.0
C[C@@H]1CN([C@@H](C)CO)C(=O)Cc2cc(NC(=O)C3CC3)ccc2O[C@@H]1CN(C)S(C)(=O)=O	8.4	6.6
C[C@@H]1CN([C@@H](C)CO)C(=O)c2cccc(NC(=O)C3CCCCC3)c2O[C@H]1CN(C)CC1CC1	-13.5	-3.9
COc1ccc(NC(=O)Nc2ccc3c(c2)C(=O)N([C@H](C)CO)C[C@H](C)[C@@H](CN(C)CC2CCCCC2)OCCCC[C@@H](C)O3)cc1	-17.8	-13.3
CC(C)CC#Cc1ccc([C@H]2[C@H](CO)N3C(=O)CN(C(=O)Cc4ccccc4)C[C@@H]23)cc1	-17.5	-17.3
O=C(Nc1ccccc1F)N1C[C@@H]2N[C@H](C1)C2c1ccc(-c2cccc(F)c2)cc1 (stereo partly drawn)	?	-1.6
C[C@H]1CN([C@@H](C)CO)C(=O)c2cccc(NC(=O)NC3CCCCC3)c2O[C@@H]1CN(C)C(=O)NC1CCCCC1	-6.3	-0.7
O=S(=O)(N[C@H]1CC[C@H](CCn2cc(-c3cccc(F)c3)nn2)O[C@@H]1CO)c1ccc(F)cc1	-34.8	-31.4
C[C@H](CO)N1C[C@H](C)[C@@H](CN(C)S(=O)(=O)c2cn(C)cn2)Oc2ccc(NC(=O)Nc3cccc4ccccc34)cc2CC1=O	18.1	8.2
CCCC#Cc1ccc([C@H]2[C@@H](C#N)N(C(=O)C3CCCC3)[C@@H]2CO)cc1	-28.4	-20.7
CC(C)CC#Cc1ccc([C@H]2[C@@H](CO)N3CCCCN(C(=O)NC4CCCC4)C[C@@H]23)cc1	?	·
C[C@H](O)C#Cc1ccc2c(c1)O[C@H](CN(C)Cc1ccccn1)[C@H](C)CN([C@@H](C)CO)S2(=O)=O	18.3	1.2
COC(=O)C[C@H]1CC[C@@H]2[C@@H](COc3ccc(NC(=O)Nc4cccc(C#N)c4)cc3C(=O)N2C)O1	-8.9	-9.1

Bioassay records as filed in PubChem.

These rows are one share of the data, so the mix of outcomes need not match the whole.
